# Bfl-1 A1 inh = caspase 3/7 activation in MEF A1-2A-BIM cells, primary screen, A1 inhibitor project, cell-based, luminescence, HTS; Caspase-Glo 3/7 luminescence, 3 h; percent of clofoctol response, vehicle zero; caspase activation, % (no concentration beside the values); 330,000 tested, 0.066% active; AID 2462, 2010;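 active means over half of replicate activation scores above 10%, or exactly half above 10 with the replicate mean above 10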;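 further: wells of about 30 µL received 50 nL stock; many hits fall short of the cut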
# B2AR ag = beta2AR agonists driving receptor internalization, primary screen, cell-based, FAP fluorogen, flow cytometry | 340,000 tested, 0.43% active | Am2.2-beta2AR cells; reference of the scale not given here | response, % (concentration not given with the values) | Beta-2 adrenergic receptor (Homo sapiens), P07550;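 active means response above a set limit, near 3 SD of response in nonfluorescent compounds, cut at about 42% in these data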;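 further: stock transfer was 100 nL into about 11 µL; a reference agonist was the positive control; negative values mostly stem from fluorescent compounds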
# Ecoli growth = E. coli growth inhibition, primary screen, OD600. 330,000 tested, 0.21% active. OD600 absorbance (test concentration not listed). AID 1053175, 2014. Escherichia coli growth, 23 h; active compounds read low;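 active means OD600 absorbance below the run mean of sample wells minus 3.6 SD, in any replicate, cut at about 0.56 in these data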;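 further: stock transfer was 300 nL into about 60 µL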
# HNF4A DNA FP = change in binding of human HNF4A to DNA, primary screen, biochemical, fluorescence polarization, FITC-DNA | Hepatocyte nuclear factor 4-alpha (Homo sapiens), P41235 | 1 h | activity change, % at 10 µM | 360,000 tested, 0.3% active; in the data active means activity change above about 30%, passing the limit was not always enough;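 further: controls were the assay level and a saturating level of protein; the project sought stronger binding though the title names inhibitors; some compounds called inactive have numbers as strong as hits; positive values seem to mean higher polarization but the record does not say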
# Target sequence (P41235 whole entry, looked up): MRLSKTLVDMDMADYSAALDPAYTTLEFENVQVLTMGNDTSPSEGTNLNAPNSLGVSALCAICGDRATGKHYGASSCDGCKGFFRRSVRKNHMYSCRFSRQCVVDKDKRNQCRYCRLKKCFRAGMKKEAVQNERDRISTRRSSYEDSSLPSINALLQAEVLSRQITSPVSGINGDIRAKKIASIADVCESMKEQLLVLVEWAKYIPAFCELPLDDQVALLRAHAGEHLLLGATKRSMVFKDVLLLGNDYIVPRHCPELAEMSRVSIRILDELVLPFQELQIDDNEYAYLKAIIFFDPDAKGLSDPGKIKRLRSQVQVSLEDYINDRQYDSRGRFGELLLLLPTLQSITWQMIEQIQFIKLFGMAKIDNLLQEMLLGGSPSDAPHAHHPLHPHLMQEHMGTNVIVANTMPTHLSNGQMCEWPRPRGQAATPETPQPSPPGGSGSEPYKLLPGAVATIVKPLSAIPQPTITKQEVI
# LANA-H2B inh = blockers of LANA interaction with H2A/H2B – biochemical, FP readout, HTS, primary screen. inhibition, % (no concentration beside the values). AID 2629, 2010. 320,000 tested, 0.6% active. Protein LANA1 (Human herpesvirus 8 type P (isolate GK18)), Q9QR71. cell-free LANA-H2A/H2B peptide, fluorescence polarization; in the data active means inhibition mostly above about 10%, no sharp cut-off; inactive means mostly below about 6.7%;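 further: stock transfer was 7.5 nL into about 10 µL; 0% = median of vehicle wells and 100% = median of positive control wells; one replicate is shown; the record names a cut of 25% in any replicate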
# UCH37 DUB inh = inhibitors of human UCH37 deubiquitinase, primary screen, biochemical, Ub-AMC cleavage, fluorescence; 330,000 tested, 0.33% active; purified proteasome/UCH37; Ubiquitin carboxyl-terminal hydrolase isozyme L5 (Homo sapiens), Q9Y5K5; inhibition, % (test concentration not listed);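 active means mean of two replicates above 20%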;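 further: 0% = compound-free wells with enzyme and 100% = wells lacking proteasome; stock transfer was 100 nL into about 20 µL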
# Target sequence (Q9Y5K5 whole entry, looked up): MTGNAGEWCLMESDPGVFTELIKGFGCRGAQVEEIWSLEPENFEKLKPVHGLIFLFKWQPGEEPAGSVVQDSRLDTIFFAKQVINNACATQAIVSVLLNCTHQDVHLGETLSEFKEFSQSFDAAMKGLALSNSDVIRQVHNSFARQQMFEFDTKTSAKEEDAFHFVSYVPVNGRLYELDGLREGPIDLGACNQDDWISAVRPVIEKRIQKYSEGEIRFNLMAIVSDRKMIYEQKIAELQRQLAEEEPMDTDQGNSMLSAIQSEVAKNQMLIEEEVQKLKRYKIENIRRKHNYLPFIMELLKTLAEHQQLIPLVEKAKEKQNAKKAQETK
#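 Material: human UCH37 enzyme supplied as purified proteasome complex / Amount: 0.15 nM proteasome as dispensed / Buffer or medium: pH 7.4 Tris-HCl (50 mM) with ovalbumin, ATP-MgCl2, DTT / Times: preincubation 30 min, reaction 25 min, room temperature / Technique: AMC fluorescence from Ub-AMC cleavage, excitation 355 nm, emission 460 nm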
# Vif TR-FRET = inhibitors of Vif binding to APOBEC3G peptide, primary screen, biochemical, TR-FRET, GST-Vif 1-94, biotin-A3G peptide, dose response retest (AID 1117319). Virion infectivity factor (Human immunodeficiency virus type 1 group M subtype B (isolate …. TR-FRET GST-Vif / biotin-A3G peptide binding; higher % means a stronger effect; test concentration not given here; strong numbers were not always called active. inhibition, %; hits with a dose series show IC50 in µM. 260,000 tested, 0.57% active;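 active means above the screen mean plus three standard deviations and confirmed in dose response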;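 further: Vif residues 1-94 fused to GST binding biotinylated APOBEC3G peptide 110-148; 0% = full assay without inhibitor and 100% = GST in place of GST-Vif; retest series ran down from 100 µM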
# An asterisk follows results filed as active; / = not tested or not shown.
# Results follow in this order: Ecoli growth	UCH37 DUB inh	B2AR ag	LANA-H2B inh	Bfl-1 A1 inh	HNF4A DNA FP	Vif TR-FRET
Cc1ccc(S(=O)(=O)N2CCCCC2)cc1NC(=O)c1ccc2c(c1)OCO2
    0.71	-0.3	5	4.7	0.8	-0.2	-8%
CC(CC(=O)Nc1ccc(Cl)c(S(=O)(=O)N2CCOCC2)c1)c1ccccc1 (stereo not given)
    0.68	3.8	9	/	/	1.6	2%
Oc1[nH]c2ccccc2c1/C=N/c1nccs1
    /	/	-26	-4.2	-1.5	18	-2%
CCC(O)CC(C(=O)NNc1ccccc1)C(=O)NNc1ccccc1 (stereo not given)
    0.72	30*	5	3.1	0.4	-1.8	-5%
CCC(C)C(NC(=O)c1ccccc1NC(=O)c1ccco1)C(=O)NNC(=O)c1ccncc1 (stereo not given)
    0.66	2.7	-3	-2.2	0.2	-1.1	-1%
CN(CC(=O)N1CCC(C(N)=O)CC1)S(=O)(=O)c1ccc2ccccc2c1
    0.68	2.1	13	0.4	-0.6	-3.0	/
CC1CC(C)CN(C(=O)c2ccc(S(=O)(=O)N3CC(C)CC(C)C3)cc2)C1 (stereo not given)
    0.7	0.8	9	0.7	0.2	0.7	/
CC(=O)c1cccc(OCC(=O)Nc2cc(Cl)ccc2-n2cncn2)c1
    0.68	4.5	-2	0.0	-0.5	-2.5	-1%
COc1ccc(NC(=O)C(OC(=O)c2cnccn2)c2ccccc2)cc1Cl (stereo not given)
    0.71	1.8	0	4.8	-0.3	5.5	/
COc1ccc(-n2cnc3sc4c(c3c2=O)CCCC4)cc1
    0.72	-0.9	-23	-2.9	-1.0	0.9	-8%
CCNC(=S)N1CCCC(c2nc3ccc(C)cc3[nH]2)C1 (stereo not given)
    0.64	1.5	0	0.5	1.5	1.0	8%
C[C@@H]1CN([C@H](C)CO)C(=O)c2cc(NC(=O)Cc3cn(C)c4ccccc34)ccc2O[C@H]1CN(C)S(=O)(=O)c1ccc(F)cc1
    /	1.8	1	0.5	0.4	2.5	/
Cc1cc(C)nc(N/N=C/c2cccc3ccccc23)n1
    /	/	3	-0.7	-0.3	-1.8	9%
CC1Cc2ccccc2N1C(=O)COC(=O)c1n[nH]c(=O)c2ccccc12 (stereo not given)
    0.69	1.1	-6	-0.7	-1.2	-0.9	10%
Cc1cc(NS(=O)(=O)c2ccc(NC(=O)c3cccc(OC(F)F)c3)cc2)nc(C)n1
    0.69	-0.6	-27	10	0.9	1.9	16%
C=C(C)C1CC=C(C)/C(=N/NC(=O)c2cccc([N+](=O)[O-])c2)C1 (stereo not given)
    /	/	-24	3.1	-0.6	2.7	-5%
COc1ccccc1NC(=O)CN1C(=O)NC2(CCCCCCC2)C1=O
    0.65	1.0	23	-13	1.1	5.2	-8%
CCOCCCNC(=O)C(NC(=O)CNC(=O)c1ccccc1)c1ccccc1 (stereo not given)
    0.68	0.2	2	4.9	1.5	0.3	3%
C/C(=N/NC(=O)CNC(=O)c1ccccn1)c1ccccc1
    /	/	0	2.9	-0.1	-2.0	/
CC(C)Cn1c(SCC(=O)c2c(N)n(C)c(=O)n(C)c2=O)nc2ccccc21
    0.81	2.7	-6	0.5	1.2	1.0	-9%

# An excerpt from above with just B2AR ag and Vif TR-FRET:
mol	B2AR ag	Vif TR-FRET
CCOCCCNC(=O)C(NC(=O)CNC(=O)c1ccccc1)c1ccccc1 (stereo not given)	2	3%
CC(=O)c1cccc(OCC(=O)Nc2cc(Cl)ccc2-n2cncn2)c1	-2	-1%
CC(C)Cn1c(SCC(=O)c2c(N)n(C)c(=O)n(C)c2=O)nc2ccccc21	-6	-9%

# Continuation.
# Results follow in this order: Ecoli growth	UCH37 DUB inh	B2AR ag	LANA-H2B inh	Bfl-1 A1 inh	HNF4A DNA FP	Vif TR-FRET
C/C(=N\NC(=O)COc1ccc(C(C)(C)C)cc1)c1cc2ccccc2o1
    /	/	1	1.6	-0.1	0.0	-3%
Cc1noc(C)c1COC(=O)/C=C/c1ccc(Cl)cc1
    0.68	-1.1	1	3.7	0.6	2.1	4%
COc1cccc(-c2nc(-c3ccncc3)no2)c1
    0.68	2.9	7	1.0	-5.5	-0.2	-4%
CCCCCCn1c(N2CCC(C)CC2)nc2c1c(=O)[nH]c(=O)n2C
    0.66	2.6	-18	7.8	1.5	0.3	-3%
Fc1cccc(CO/N=C/c2c(-c3ccccc3)nc3ccc(Cl)cn23)c1
    /	/	4	-0.2	/	0.3	-3%
CSc1c(CC(=O)NCCO)n(C)c2ccccc12
    0.67	3.6	0	4.0	-0.3	-1.0	27%
O=C1CSC(=S)N1c1ccc(Cl)c(Cl)c1
    0.57	0.8	20	3.4	-0.5	1.7	-11%
Cc1ccc([C@@H]2[C@@H]3C(=O)N(C)C(=O)[C@@H]3[C@]3(C)C(=O)N(Cc4ccc(-c5ccccc5)cc4)CC(=O)N23)o1
    /	4.3	4	0.5	0.4	0.6	/
COc1cc(NC(=O)c2cc(-c3ccc4c(c3)OCO4)on2)cc(OC)c1OC
    0.69	5.6	-8	1.6	0.1	1.9	/
Cc1ccn2c(-c3csc(NCc4ccco4)n3)c(C)nc2c1
    0.66	-3.9	-1	-4.4	-0.7	4.9	17%
O=C(NCCN1CCOCC1)C1CCC(=O)N1Cc1ccccc1Cl (stereo not given)
    0.76	0.2	0	-2.1	0.6	-2.8	-2%
Cc1ccc(NC(=O)CCC(=O)Nc2nnc(C3CCCCC3)s2)cc1
    0.62	1.8	4	9.6	-0.3	-2.9	0%
Cn1c(C(=O)N2CCN(Cc3ccc4c(c3)OCO4)CC2)cc2c(=O)n(C)c3ccccc3c21
    0.67	-2.4	-10	-0.8	0.2	0.2	0%
CC(C)c1ccc(N=C2N=C(N)c3ccccc32)cc1
    0.71	8.6	7	2.1	-0.4	0.2	9%
Cc1nn(C)cc1S(=O)(=O)NCc1ccc2c(c1)OCO2
    0.68	-0.2	-12	0.9	-0.9	2.2	0%
O=C(O)c1cccc(N2C(=O)/C(=C/c3ccc([N+](=O)[O-])cc3)C=C2c2ccccc2)c1
    0.7	6.5	-3	-3.1	-0.6	-1.5	/
Cc1cc2nccc(-c3ccncc3)n2n1
    0.72	4.7	-1	2.2	0.6	0.5	/
NS(=O)(=O)c1cc(C(=O)OCC(=O)Nc2ccc(Cl)cc2[N+](=O)[O-])ccc1Cl
    0.67	1.5	-9	6.2	-1.2	-0.1	-1%
COc1ccccc1CN1CCNC(=O)C1CC(=O)NCc1c(C)n[nH]c1C (stereo not given)
    0.7	-2.7	4	3.6	0.2	7.4	8%
Cc1ccc(NC(=O)Nc2nnc(Cc3ccc([N+](=O)[O-])cc3)s2)cc1
    0.67	2.5	3	1.1	0.3	2.4	-8%
Cc1ccc2c(c1)-c1c(cnn1CC(=O)NC(C)CCc1ccco1)CO2 (stereo not given)
    0.78	1.3	-3	0.4	-0.1	3.9	12%
C1=Cc2ccccc2Nc2ccccc21
    0.67	-1.7	2	-0.7	2.2	5.2	-2%
COc1ccc(S(=O)(=O)N2CCN(Cc3cc(OC)c(O)c(OC)c3)CC2)cc1
    0.66	5.3	8	-0.5	0.3	-0.2	/
O=C(CSC1=NNC(c2ccccn2)S1)Nc1ccccc1 (stereo not given)
    0.66	7.5	6	1.9	-0.3	-1.2	5%
Cc1ccc(NC(=O)c2ccccc2Cl)cc1-n1cnnn1
    0.68	2.4	-2	-8.7	0.2	4.3	/
CCn1c(NC(=O)/C=C/c2ccc(F)cc2)nc2ccccc21
    0.65	2.1	3	-6.1	0.1	0.3	/
CCOCCCn1c(=S)[nH]c2ncccc2c1=O
    0.7	1.8	-6	11	0.8	1.7	-4%
COc1ccc(CCC(=O)Nc2cccc(S(=O)(=O)N3CCCCCC3)c2)cc1OC
    0.71	1.7	2	/	0.9	-0.9	1%
Cc1nn(CCc2nn[nH]n2)c2nc(-c3ccccc3)cc(C(F)(F)F)c12
    0.68	-147	10	-2.9	0.7	-0.1	/
CN(CC(=O)Nc1c(Cl)cccc1Cl)C(=O)Cc1ccc2c(c1)CCC2
    0.69	0.6	-2	3.2	0.2	-1.9	-1%
CCN1CCN(C(=S)c2ccc(SC)cc2)CC1
    0.67	2.8	4	-1.3	0.9	-2.1	4%
COc1ccc(C#Cc2c(-c3ccc(OC)cc3)oc3ccc(-c4ccc(OC)cc4)cc23)cc1
    0.78	-297	5	-1.9	-1.9	2.1	/
Cc1ccc(C(=O)O/N=C(\N)Cc2cccs2)c(Cl)c1
    0.7	4.2	-3	0.6	-2.9	4.5	3%
COc1cc(OC)cc(C(=O)NC(C(=O)N2CCc3ccccc3C2)C(C)C)c1 (stereo not given)
    0.67	4.2	5	0.2	1.6	4.3	/
CCCC(C)NC(C)C(=O)NC1CCCC1 (stereo not given)
    0.66	0.8	-5	-3.4	0.9	2.0	12%
CCOC(=O)N1CCN(C(=O)Cn2nc(C)c3sc4ccccc4c3c2=O)CC1
    0.75	-0.3	-4	4.9	0.4	2.7	1%
O=C(CCNC(=O)Cn1ccc2ccccc2c1=O)NCCCN1CCN(c2ccccc2F)CC1
    0.67	3.1	0	-1.0	1.0	-0.1	-2%
COc1ccc(-c2ccc(/C=N/NC(=O)Cc3nnc(N)s3)o2)cc1Cl
    /	/	20	-1.1	0.9	11	16%
COc1ccccc1OCCSc1nc2ccc([N+](=O)[O-])cc2s1
    0.71	1.1	1	-0.6	-0.1	3.6	-4%
O=C(O)c1ccccc1-c1ccccc1C(=O)Nc1cccc2ccccc12
    0.71	2.5	2	4.7	1.3	0.0	5%

# Some of these compounds in order of the Vif TR-FRET value, smallest number first:
canonical_smiles | Vif TR-FRET
Cc1ccc(NC(=O)Nc2nnc(Cc3ccc([N+](=O)[O-])cc3)s2)cc1 | -8%
Cc1nn(C)cc1S(=O)(=O)NCc1ccc2c(c1)OCO2 | 0%
Cc1cc(NS(=O)(=O)c2ccc(NC(=O)c3cccc(OC(F)F)c3)cc2)nc(C)n1 | 16%

# Next section
# Results follow in this order: Ecoli growth	UCH37 DUB inh	B2AR ag	LANA-H2B inh	Bfl-1 A1 inh	HNF4A DNA FP	Vif TR-FRET
O=C(C1CC(=O)N(c2ccccc2)C1)N1CCN(c2ccc(F)cc2)CC1 (stereo not given)
    0.66	3.6	2	8.3	-0.4	1.8	0%
CCN(CC)S(=O)(=O)c1ccc(OC)c(NC(=O)c2ccc([N+](=O)[O-])cc2)c1
    0.67	1.9	0	-0.5	0.1	-0.2	-10%
O=C(NCc1ccc(F)cc1)C1CCC(=O)N1C1CCCCC1 (stereo not given)
    0.71	1.7	-2	-6.4	0.2	-5.0	3%
COc1ccc(-c2nn(-c3ccccc3)cc2/C=N/Nc2cccc(C(=O)O)c2)cc1
    /	/	16	/	/	-13	2%
O=C(COC(=O)c1ccc(Cl)cc1[N+](=O)[O-])NNC(=O)c1cccs1
    0.61	1.2	0	-2.3	0.2	0.4	/
COc1ccc(CNC(=O)CCn2c(=O)oc3ccccc32)cc1
    0.69	2.0	1	5.6	-0.8	-1.0	2%
O=C(CCc1nc(-c2cccs2)no1)Nc1cnc2ccccc2c1
    0.71	-7.0	-10	-2.0	-0.7	0.7	-22%
